PV pol inh – poliovirus RdRp elongation inhibitors, primary screen, biochemical, fluorescence polarization, total intensity | Genome polyprotein (Poliovirus type 1 (strain Mahoney)), P03300 | poliovirus polymerase elongation; stronger effect = lower value | % elongation, % (compound at 16.7 µg/mL) | 150,000 tested, 0.66% active | AID 588519, 2011; in the data active = % elongation below about 90%; also: some results filed as inactive read as strong as hits
Target sequence (P03300 1749-2209 limits assumed): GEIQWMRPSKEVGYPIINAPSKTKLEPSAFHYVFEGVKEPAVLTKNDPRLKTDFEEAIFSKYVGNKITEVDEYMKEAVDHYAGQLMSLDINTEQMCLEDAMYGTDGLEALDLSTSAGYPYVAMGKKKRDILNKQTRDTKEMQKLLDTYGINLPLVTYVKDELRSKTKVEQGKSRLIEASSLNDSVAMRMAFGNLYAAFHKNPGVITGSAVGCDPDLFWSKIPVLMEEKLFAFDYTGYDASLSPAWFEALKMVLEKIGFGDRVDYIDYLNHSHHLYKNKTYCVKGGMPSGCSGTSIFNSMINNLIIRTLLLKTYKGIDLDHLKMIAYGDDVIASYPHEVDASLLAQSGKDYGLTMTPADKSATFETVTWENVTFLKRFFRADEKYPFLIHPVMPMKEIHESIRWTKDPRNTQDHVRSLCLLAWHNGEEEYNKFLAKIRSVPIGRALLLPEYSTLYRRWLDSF
PV pol inh intensity – second read-out of PV pol inh, no call of its own (marks repeat the call); % elongation; measured here: total intensity read-out; formula for this scale not given here;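 total fluorescence in place of polarization; lower means less elongation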
* marks the source's active call; other numbers are inactive results. Only part of the results is shown; the hit share may differ from the screen's.

Order of results – PV pol inh | PV pol inh intensity
> CCCOc1ccc(NC(=O)CC2C(=O)N(c3ccc(OC)cc3)C(=O)N2CCc2ccncc2)cc1 (stereo not given)
→ 109 | 114
> NS(=O)(=O)c1ccc(CCNC(=O)CCCCCn2c(=O)[nH]c3ccccc3c2=O)cc1
→ 100 | 105
> CCOC(=O)c1cc(S(=O)(=O)N2CCN(c3ccc(C(C)=O)cc3)CC2)[nH]n1
→ 104 | 100
> CCCN(C(=O)Cc1nc(-c2ccc(OC)cc2)no1)c1ccccc1C
→ 104 | 112
> CCCc1nn2c(=O)cc(COC(=O)c3cccc(NC(=O)c4cccs4)c3)nc2s1
→ 107 | 110
> CCCNC(=O)c1ccc2c(c1)N=C(CCC)c1ccccc1S2
→ 112 | 109
> Cc1cn(C)c(CC(=O)Nc2cccc(Cl)c2C)c1C(=O)O
→ 110 | 104
> CCOC(=O)c1oc2c(c1C)-c1nn(Cc3c(F)cccc3Cl)cc1CC2
→ 106 | 107
> COc1cccc(-n2c(SCC(=O)N3CCCc4ccccc43)nc3c([nH]c4ccccc43)c2=O)c1
→ 108 | 112
> Cc1c(C(=O)OCc2ccccc2)[nH]c2c1C(=O)CC(c1ccc(N(C)C)cc1)C2 (stereo not given)
→ 102 | 104
> Cc1cc(C)c2c(CC(=O)Nc3cc(C(F)(F)F)ccc3Cl)coc2c1
→ 112 | 114
> Cc1ccccc1NC(=O)c1sc2nc3c(cc2c1N)CN(Cc1ccccc1)CC3
→ 107 | 112
> CN1CCN(c2ncnc3c2cnn3-c2cccc(Cl)c2)CC1
→ 112 | 116
> O=C(NCc1cccn1Cc1ccccc1)Nc1cccc(C(F)(F)F)c1
→ 110 | 112
> Cc1ccc2c(c1)c(=O)c(S(=O)(=O)c1ccc(C)c(C)c1)cn2CC(=O)Nc1ccccc1
→ 107 | 105
> CCc1ccc(NS(=O)(=O)c2ccc(NC(=O)N3CCCC3)cc2)cc1
→ 108 | 106
> CC(=O)NC(C)c1nc2ccccc2n1Cc1ccccc1Cl (stereo not given)
→ 107 | 103
> CCOc1ccc(C(=O)Oc2c(Sc3ccccc3)c(C)nn2C(C)(C)C)cc1OCC
→ 107 | 109
> O=C(Nc1ccc2oc(-c3ccc4ccccc4c3)nc2c1)c1cc(Cl)ccc1Cl
→ 101 | 104
> Cn1nnnc1SCCNCc1ccc(OCc2ccccc2Cl)cc1
→ 99 | 97
> CCN(c1ccccc1)S(=O)(=O)c1c(C)nc2scc(C)n2c1=O
→ 102 | 103
> CC1CCN(S(=O)(=O)c2ccc3c(c2)N(CC(=O)NCCCN2CCCCC2)C(=O)CS3)CC1
→ 112 | 107
> CCOc1ccc(N(CC)C(=O)Cn2cnc3sc(C)c(S(=O)(=O)N4CCN(c5ncccn5)CC4)c3c2=O)cc1
→ 104 | 108
> COc1ccc(-c2c3c(=O)n(C)c(=O)n(C)c3c3n2-c2ccccc2NC3c2ccco2)cc1 (stereo not given)
→ 126 | 143
> CCOC(=O)c1[nH]cnc1C(=O)Nc1ccc(F)cc1
→ 104 | 108
> Cc1cc(N2CCC(C(=O)NCCC(C)C)CC2)n2nc(C)c(-c3ccc(Cl)cc3)c2n1
→ 104 | 106
> Cc1ccc(CNC(=O)Cn2cc(S(=O)(=O)Cc3ccccc3Cl)c3ccccc32)cc1
→ 107 | 117
> Cc1ccc(NC(=O)C2CCCN2S(=O)(=O)c2ccc3nc(-c4ccccc4)[nH]c3c2)cc1F (stereo not given)
→ 103 | 99
> CCn1cc(S(=O)(=O)c2ccc(Cl)cc2)c(=O)c2cc(F)c(N3CCOCC3)cc21
→ 113 | 116
> CC(=O)c1ccc(NC(=O)c2cc3c([nH]c2=O)CC(c2ccccc2)CC3=O)cc1 (stereo not given)
→ 104 | 110
> O=C(CC1C(=O)N(c2ccccc2)C(=O)N1Cc1ccc(F)cc1)Nc1cccc(F)c1 (stereo not given)
→ 110 | 114
> CCOC(=O)c1ccc(NC(=O)C2CCCN(c3ccc(Sc4ccc(C)cc4)nn3)C2)cc1 (stereo not given)
→ 104 | 108
> CCCCOc1cccc(C(=O)Nc2cccc3ccc(C)nc23)c1
→ 104 | 105
> Cc1ccc(Cl)cc1N1CCN(C(=O)CCn2c(=O)c3cccn3c3cccnc32)CC1
→ 111 | 113
> CCn1c2c(c(=O)n3ncc(C(=O)N4CCN(c5ccc(C(C)=O)cc5)CC4)c13)CN(Cc1ccc(OC)cc1)CC2
→ 115 | 109
> Cc1ccc(CNC(=O)c2cc(=O)c3cc(C)cc(C)c3o2)cc1
→ 106 | 94
> COc1cccc(CNC(=O)c2ccc(CS(=O)c3ccccc3)o2)c1 (stereo not given)
→ 100 | 91
> Cc1ccc2oc(-c3cc(NC(=O)c4ccc5c(c4)OCCO5)cc(C)c3O)nc2c1
→ 106 | 109
> CCOC(=O)c1c(C)[nH]c(C)c1S(=O)(=O)NCC(=O)N1CCN(c2ccccc2OC)CC1
→ 111 | 114
> COc1ccc(OC)c(CNC(=O)C2CCN(c3nc4ccccc4nc3C(F)(F)F)CC2)c1
→ 109 | 104

Random excerpt: three records from the list, in no set order.
Order of results – PV pol inh | PV pol inh intensity
> CCCCOc1cccc(C(=O)Nc2cccc3ccc(C)nc23)c1
→ 104 | 105
> Cc1ccc(NC(=O)C2CCCN2S(=O)(=O)c2ccc3nc(-c4ccccc4)[nH]c3c2)cc1F (stereo not given)
→ 103 | 99
> CCOc1ccc(N(CC)C(=O)Cn2cnc3sc(C)c(S(=O)(=O)N4CCN(c5ncccn5)CC4)c3c2=O)cc1
→ 104 | 108

(further entries)
Order of results – PV pol inh | PV pol inh intensity
> COc1ccc(C(=O)NCC(c2ccco2)S(=O)(=O)c2cccs2)cc1 (stereo not given)
→ 104 | 111
> CCc1nn2c(=O)cc(COC(=O)c3ccccc3)nc2s1
→ 109 | 113
> Cc1cccc(OCC(=O)N2CCN(Cc3cc(=O)n4nc(-c5ccccc5Cl)sc4n3)CC2)c1
→ 115 | 111
> CCOc1ccc(NC(=O)C2CCCN(c3ccc(Sc4ccc(C)cc4)nn3)C2)cc1 (stereo not given)
→ 107 | 108
> Cc1cc(C)cc(-n2ccn3c(CC(C)(C)CC(=O)O)nnc3c2=O)c1
→ 99 | 104
> Cc1ccc2ncc(C(=O)Nc3ccc(F)cc3F)c(=O)n2c1
→ 105 | 105
> CCC(Oc1ccccc1F)C(=O)N1CCC(c2nc3ccccc3s2)CC1 (stereo not given)
→ 110 | 102
> COC(=O)c1cc2oc(C)cc2n1CC(=O)Nc1cc(Cl)ccc1OC
→ 110 | 112
> CC(C)(C)OC(=O)N1CCC(c2c(C(=O)N3CCN(c4ccccn4)CC3)cnn2-c2ccc(F)cc2F)CC1
→ 109 | 112
> Cc1csc2nc(COC(=O)CNC(=O)c3ccccc3)cc(=O)n12
→ 108 | 109
> Cc1cccc(CSc2nnc3[nH]c(=O)cc(-c4ccccc4)n23)c1
→ 102 | 103
> O=C(Cn1ncc2c3ccccc3n(Cc3ccccc3F)c2c1=O)N1CCCCCC1
→ 107 | 110
> COc1ccc(N2CC(NC(=O)COc3ccc4ccccc4c3)CC2=O)cc1OC (stereo not given)
→ 114 | 107
> CNC(=O)c1c(NC(=O)c2ccc(S(=O)(=O)N3CCCCC3)cc2)sc2c1CCC2
→ 114 | 116
> Cc1ccc(C)c(CN2C(=O)c3ccccc3S(=O)(=O)c3ccc(C(=O)Nc4ccccc4C(F)(F)F)cc32)c1
→ 103 | 104
> CCN1CCN(C(=O)c2ccc3c(c2)N(Cc2c(F)cccc2Cl)C(=O)c2ccccc2S3)CC1
→ 112 | 113
> Cc1ccc(NC(=O)Cn2c(=O)ccc3cc(S(=O)(=O)N4CCC(C)CC4)ccc32)cc1C
→ 105 | 114
> Cc1ccc(NC(=O)CN2C=NS(=O)(=O)c3ccccc32)cc1
→ 107 | 106
> O=C(CCCn1c(=O)c2cccn2c2cccnc21)Nc1ccccc1Br
→ 107 | 111
> CCOCCCNc1ncnc2c1cnn2-c1ccc(C)c(C)c1
→ 108 | 109
> Cc1ccc(NC(=O)Nc2c[nH]c(=O)[nH]c2=O)c(Cl)c1
→ 109 | 112
> CCCC(=O)Nc1ccc(-c2nc3ncccc3o2)cc1C
→ 101 | 101
> CCOc1ccc(NC(=O)CCS(=O)(=O)c2ccc3nc(C)sc3c2)cc1
→ 107 | 111
> Cc1cn2c(=O)c(S(=O)(=O)NCc3ccccc3Cl)c(C)nc2s1
→ 104 | 109
> CCOc1ccccc1NC(=O)C1=C(C)Nc2ncnn2C1c1sccc1C (stereo not given)
→ 102 | 103
> Cc1ccc(C(C)C)c(OCC(O)CN2CCN(c3ccccc3F)CC2)c1 (stereo not given)
→ 102 | 105
> Cc1ccc(S(=O)(=O)c2cn(C)c3cc(N4CCN(C)CC4)c(F)cc3c2=O)cc1
→ 106 | 99
> O=c1[nH]c2ccc(NS(=O)(=O)c3ccc(F)cc3)cc2s1
→ 102 | 102
> COCCn1c(C)cc(O)c(C(c2ccccc2)N2CCN(c3ccc(F)cc3)CC2)c1=O (stereo not given)
→ 101 | 88
> CCN(CC)S(=O)(=O)c1ccc2c(c1)N(CC(=O)NCCCN1CCN(c3cc(Cl)ccc3C)CC1)C(=O)CO2
→ 110 | 110
> Cc1c(C(c2ccc(F)cc2)c2c(O)c3ccccc3oc2=O)c(=O)n(-c2ccccc2)n1C (stereo not given)
→ 102 | 95
> CCc1nn2c(=O)cc(COC(=O)c3ccc4c(c3)OCO4)nc2s1
→ 104 | 97
> CCC(=O)Nc1ccccc1-c1nc2ccccc2n(CC(=O)c2ccc(Br)cc2)c1=O
→ 108 | 115
> Cc1ccc(S(=O)(=O)c2nnn3c2nc(N2CCCC(C)C2)c2cc(Cl)ccc23)cc1C (stereo not given)
→ 101 | 104
> COc1ccc(CCC(=O)NC2CC(=O)N(c3ccc(C)cc3)C2)cc1 (stereo not given)
→ 103 | 109
> CCOC(=O)c1ccccc1NC(=O)N1CCC(CN2CCCCC2)CC1
→ 111 | 113
> CCc1nn(CCCC(=O)NCc2ccc(C)cc2)c(=O)c2cc3occc3n12
→ 106 | 109
> Cc1cccc(NC(=O)c2sc3nc(-c4cc5ccc(O)cc5oc4=O)[nH]c(=O)c3c2C)c1
→ 94 | 281
> COc1ccc(NS(=O)(=O)c2ccc3[nH]c(=O)ccc3c2)cc1OC
→ 108 | 107
> COc1cc(NS(=O)(=O)c2ccc3oc(=O)c4ncn(C)c4c3c2)cc(OC)c1
→ 100 | 97
> CCOc1ccc(CNC(=O)c2cnc(SC)nc2CC)cc1
→ 108 | 109
> CCOC(=O)c1c(C)[nH]c(CCC(=O)Nc2cc(C)ccc2OC)c1C
→ 111 | 112
> COc1ccc(OC)c(NC(=O)c2cnc(N3CCCC3)nc2C)c1
→ 111 | 108
> CCN(C(=O)Cn1nc(Cc2ccncc2)c2ccccc2c1=O)c1ccc(OC)cc1
→ 108 | 109
> CCCC(=O)Nc1ccccc1OCc1cc(=O)n2cc(C)ccc2n1
→ 101 | 107
> CC1CCN(S(=O)(=O)c2ccc3nc(NCc4ccc(F)cc4)ccc3c2)CC1
→ 111 | 116
> Cc1cccc(OCC(=O)Nc2c(C(=O)N3CCN(c4ccccc4F)CC3)oc3ccccc23)c1
→ 107 | 113
> COc1cc2nc(NC(=O)c3ccc(S(=O)(=O)N4CCCC4)cc3)sc2cc1OC
→ 104 | 111
> Cc1ccc(CNC(=O)c2ccc3c(O)c(S(=O)(=O)c4ccc(Cl)cc4)c(=O)[nH]c3c2)cc1
→ 106 | 107
> COc1ccc(C)cc1NC(=O)CN1C(=O)COc2ccc(S(=O)(=O)NC3CCCC3)cc21
→ 107 | 113
> CC(=O)c1cccc(NC(=O)C2CCN(S(=O)(=O)c3ccccc3)CC2)c1
→ 109 | 112

An excerpt of these results, as labelled records.
> CCCCOc1cccc(C(=O)Nc2cccc3ccc(C)nc23)c1
- PV pol inh: 104
- PV pol inh intensity: 105
> Cc1ccc(Cl)cc1N1CCN(C(=O)CCn2c(=O)c3cccn3c3cccnc32)CC1
- PV pol inh: 111
- PV pol inh intensity: 113
> CCn1c2c(c(=O)n3ncc(C(=O)N4CCN(c5ccc(C(C)=O)cc5)CC4)c13)CN(Cc1ccc(OC)cc1)CC2
- PV pol inh: 115
- PV pol inh intensity: 109
> Cc1ccc(CNC(=O)c2cc(=O)c3cc(C)cc(C)c3o2)cc1
- PV pol inh: 106
- PV pol inh intensity: 94

From PubChem
